Source: PubChem BioAssay (several laboratories)
CBX7 AlphaScr – inhibitors of human CBX7 binding to H3K27me3 peptide; AlphaScreen His6-CBX7 / biotin-H3K27me3 peptide binding; hits give low values; hit rate 1.1% among 66,000; normalised signal (fraction of DMSO) (no concentration beside the values); in the data active means normalised signal below about 0.5;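 further: 100 nL library stock added to about 20 µL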
Target sequence (O95931 whole entry, looked up): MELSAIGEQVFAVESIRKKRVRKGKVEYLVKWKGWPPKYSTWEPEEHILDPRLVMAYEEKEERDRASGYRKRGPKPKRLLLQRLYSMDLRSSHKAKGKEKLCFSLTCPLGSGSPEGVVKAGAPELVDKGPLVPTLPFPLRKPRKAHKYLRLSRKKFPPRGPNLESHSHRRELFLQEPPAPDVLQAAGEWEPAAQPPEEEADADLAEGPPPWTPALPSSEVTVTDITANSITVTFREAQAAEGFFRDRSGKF
CBX7 AlphaScr z-score – second read-out of CBX7 AlphaScr, no call of its own (marks repeat the call); z-score; measured here: z-score of CBX7 signal; some inactives read as strong as hits; reference of the scale not given here;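 same signal on another scale; lower means less binding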
* = called active by the depositor; & = joins results of further samples.

smiles,CBX7 AlphaScr,CBX7 AlphaScr z-score
O=C(CSc1nnc(Cc2cc(=O)[nH]c(=O)[nH]2)n1-c1ccccc1)Nc1ccc(F)cc1F,1.1,3.3
CCOc1ccc2nc(Nc3nc(O)cc(=O)[nH]3)nc(C)c2c1,0.98,-0.4
CC(c1ccccc1)N1CCC(CNC(=O)Nc2ccc(F)cc2)C1 (stereo not given),1,0.13
O=C(CC1Sc2ccccc2NC1=O)Nc1ccc(N2CCOCC2)cc1 (stereo not given),1,1.6
O=c1c2c(-c3ccccc3)csc2ncn1-c1ccc(Br)cc1,1,1.2
CCOc1ccc(C(=O)N2CC(=O)Nc3ccc(F)cc3C2c2ccc(F)cc2)cc1 (stereo not given),0.9,-0.41
Cc1ccc(-c2nc(CS(=O)(=O)CC(=O)N3CCN(C)CC3)c(C)o2)cc1,0.99,-0.015
CCOc1ccc(-c2csc(NC(=O)c3cccnc3)n2)cc1,1,0.042
CCOc1ccc(NC(=O)[C@H](CCSC)N2Cc3ccccc3C2=O)cc1,0.84,-0.45
CCOC(=O)N1CCC(Nc2c(N3CCN(Cc4ccccc4)CC3)c(=O)c2=O)CC1,1,0.69
O=C(Nc1ccccc1O)c1c2c(nc3ccccc13)CCCC2,0.77,-3.7
CC1CC(C)CN(S(=O)(=O)c2ccc3c(c2)N(CC(=O)NCCC2=CCCCC2)C(=O)CO3)C1 (stereo not given),1,0.84
CCC(=O)N1c2ccc(S(=O)(=O)NCCCN(CC)c3cccc(C)c3)cc2CC1C (stereo not given),0.72,-8.5
CC(NC(=O)C1CCN(C(=O)c2cc3sccc3n2C)CC1)C12CC3CC(CC(C3)C1)C2 (stereo not given),1.1,2.6
CCOC(=O)COc1cc2occ(-c3nc4ccccc4s3)c(=O)c2cc1CC,1.1,2
CCOC(=O)C1CCN(C(=O)Nc2ccc3snnc3c2)CC1,1,0.31
COc1ccc(C)cc1NC(=O)CCCNC(=O)Cn1cnc2sc(C)c(C)c2c1=O,1.1,2.5
Cc1ccc(Nc2c(-c3ccsc3)nc3ccc(Br)cn23)cc1,1,0.76
O=C(c1ccc2c(c1)N(Cc1ccccc1F)C(=O)c1ccccc1S2(=O)=O)N1CCCC1,0.96,-0.93
CCN(CC)CCCNC(=O)CS(=O)(=O)Cc1nc(-c2cccc(OC)c2)oc1C,1,0.35
COc1ccc(OC)c(CCNC(=O)CS(=O)(=O)Cc2nc(-c3ccc(C)cc3)oc2C)c1,0.97,-0.072
O=C(Cn1cc(S(=O)(=O)c2ccccc2)c(=O)c2cc3c(cc21)OCO3)Nc1ccccc1,0.85,-2.1
COc1ccc(C(=O)Nc2c3c(nn2-c2ccc(C)cc2C)CS(=O)(=O)C3)cc1OC,0.95,-0.6
COc1ccc(CNC(=O)C2CCC(=O)N2C(C)C)c(OC)c1 (stereo not given),0.91,-1.1
Cc1ccc(Nc2nc(-c3c(C)nc4sccn34)cs2)cc1,0.68,-3.7
COc1ccc(-c2nc3cc(C)ccn3c2Nc2ccccc2C)cc1,0.78,-2.2
COC(=O)c1ccccc1NC(=O)C1CCCN(C(=O)c2cnn(-c3ccccc3)c2-n2cccc2)C1 (stereo not given),0.89,-5.5
CCCNC(=O)C1CCN(c2cc(C)nc3c(-c4ccc(OC)c(OC)c4)c(C)nn23)CC1,1,0.029
Cc1cc(C)cc(NC(=O)CN2C(=O)c3ccccc3Sc3ccc(C(=O)N4CCCC4)cc32)c1,0.99,-0.21
COCCCNC(=O)C1CCC(=O)N1Cc1ccccc1Cl (stereo not given),1.1,0.99
COc1ccc(CC(=O)N2CC(=O)Nc3ccc(Br)cc3C2c2ccc(F)cc2)cc1OC (stereo not given),1.1,0.95
CCCCCn1c(=N)n(CC(O)COc2ccc(C)cc2)c2ccccc21 (stereo not given),0.88,-0.54

Reprinted from the part before: 2 compounds, followed by the next part.
smiles,CBX7 AlphaScr,CBX7 AlphaScr z-score
COc1ccc(CC(=O)N2CC(=O)Nc3ccc(Br)cc3C2c2ccc(F)cc2)cc1OC (stereo not given),1.1,0.95
CCCCCn1c(=N)n(CC(O)COc2ccc(C)cc2)c2ccccc21 (stereo not given),0.88,-0.54
CCOC(=O)c1[nH]c(=O)[nH]c1CSc1nc(-c2ccccc2)cc(-c2ccccc2)n1,0.85,-3.7
CC(C)N1C(=O)N(c2ccc(F)cc2)C(=O)C1CC(=O)Nc1ccc(F)cc1 (stereo not given),1,-0.07
CC(=O)N1CCc2cc(S(=O)(=O)Nc3ccc(Br)cc3C)ccc21,1.3,1
CCc1cccc(C)c1NC(=O)C1CCCN(S(=O)(=O)c2cccnc2)C1 (stereo not given),0.97,-0.88
CCOc1ccccc1CN1CCC(CNC(=O)c2ccc3c(c2)NC(=O)CN3C)CC1,1,-0.032
O=C(O)c1ccc(S(=O)(=O)c2ccc3c(c2)C(=O)N(Cc2cccnc2)C3=O)cc1,0.96,-0.97
O=C(C1CC1)N1CCc2cc(S(=O)(=O)N3CCN(c4cccc(Cl)c4)CC3)ccc21,1.1,3.2
O=C(CN1C(=O)COc2ccccc21)NC1CCCCCCC1,1,0.31
O=C1c2ccccc2-c2onc3ccc(Nc4ccc(Cl)cc4)c1c23,0.68,-6.2
COc1ccc(-n2c(/C=C/c3ccc(OC(F)F)cc3)nc3ccccc3c2=O)cc1Cl,1.1,2.5
Cc1nc(Nc2ccc(S(N)(=O)=O)cc2)oc1C,1,0.74
Cc1ccccc1CN1C(=O)C(O)(CC(=O)c2cccc(N)c2)c2ccccc21 (stereo not given),0.93,-0.19
O=C(CN1C2=NCCCN2c2ccccc21)c1ccccc1,0.95,-0.9
O=C(Nc1ccc(F)cc1)c1ccc2c(=O)n3c(nc2c1)CCCCC3,0.99,-0.52
Cc1nc2c(-c3ccc(F)cc3)c(C)nn2c(C)c1CCC(=O)O,1.1,2.3
Cc1nc2sc(C(c3cccs3)N3CCC(C)CC3)c(O)n2n1 (stereo not given),0.98,-0.97
Cn1c(=O)c(=O)n(C)c2cc(S(=O)(=O)N3CCCC3C(=O)NC3CCCCC3)ccc21 (stereo not given),1,0.034
CCOC(=O)N1CCC(N2Cc3cccc(C(=O)NCCc4cccc(C)c4)c3C2=O)CC1,0.97,-1.4
CCn1c(=O)cc(OCC(=O)NCc2ccc(C)cc2)c2ccccc21,0.87,-2.1
COc1ccc(Cl)cc1S(=O)(=O)NCCc1c(C)[nH]c2ccc(C)cc12,0.48*,-0.52*
Cc1cc(N2CCCCC2)nc2ccc(NC(=O)COc3ccc(Cl)cc3Cl)cc12,1.1,1
CCOc1ccc(-n2cc(C(=O)Nc3cccc(Cl)c3)c3cc(OC)c(OC)cc3c2=O)cc1,0.87,-3.5
COc1cccc(C2=NOC(C(=O)N3CCCC3)C2)c1 (stereo not given),0.94,-0.79
Cc1cc(Nc2ccccc2C(=O)O)n2ncnc2n1,1.1,1.6
Cc1cccc(CCNC(=O)CCc2c(C)nc3ncnn3c2C)c1,1,0.57
COc1ccc(OC)c(C2=NOC(C(=O)N3C(C)CCCC3C)C2)c1 (stereo not given),1,0.94
COc1ccc(CNC(=O)c2nc(-c3ccc(C)cc3)oc2C)cc1,0.99,-0.32
COc1ccc(OC)c2[nH]c(=O)c(CCNC(=O)c3ccccc3Cl)cc12,1,0.99
COc1cccc(OC)c1OCC(O)CNC(C)c1ccccc1 (stereo not given),1.1,0.8
COc1ccc(OCC(=O)Nc2ccc(-c3nc4ncccc4o3)cc2)cc1,0.9,-1.1
Cc1ccc(-c2nc3cccc(C)c3nc2-c2ccc(C)cc2)cc1,1.6,3.7
CCOC(=O)c1cnc2c(C)cccc2c1Nc1ccc(C)c(Cl)c1,1.1,1.4
Cc1ccccc1NC(=O)CC1C(=O)N(Cc2ccccc2)C(C)c2nc3ccccc3n21 (stereo not given),0.98,-0.62
CCN(CC)c1cc(C)c2cc(NC(=O)c3cccc(OC)c3OC)ccc2n1,1.2,2.5
CCN(CCNC(=O)Cn1ncc2ccsc2c1=O)c1ccccc1,1,0.28
CCOc1ccccc1Nc1ccnc2cc(Cl)ccc12,1.2&1.3,7.5&1.1
O=C(C1CCC1)N1CCc2cc(S(=O)(=O)N3CCN(Cc4ccccc4)CC3)ccc21,0.93,-2.5
Cc1ccc(S(=O)(=O)NCC(NC(c2ccccc2)c2ccccc2)c2ccccc2)cc1 (stereo not given),0.84,-1
CCOCCCNC(=O)C1CCCN(c2nn3c(=O)cc(C)nc3s2)C1 (stereo not given),0.89,-0.8
Cc1sc2ncnc(NC3CCCCCC3)c2c1S(=O)(=O)N1CCC(C)CC1,0.98,-0.43
Cc1n[nH]c(C)c1CCCCCOc1ccccc1F,1.1,0.19
Cc1nc2c(C(=O)NCc3ccccc3)cnn2c(C)c1Cc1ccccc1Cl,0.87,-3.7
COc1ccc(-c2cc3nc(C)c(CCC(=O)NC(C)c4cccs4)c(C)n3n2)c(OC)c1 (stereo not given),1.1,0.66
Cc1nn(Cc2ccc(F)cc2)c(C)c1NC(=O)c1cc(C(C)C)on1,1,0.22
COc1ccc(C)cc1NC(=O)CN(C)S(=O)(=O)c1ccc2c(c1)n(C)c(=O)c(=O)n2C,0.99,-0.34
Cc1nc2c(C(=O)N3CCC4(CC3)OCCO4)cnn2c(C)c1Cc1c(F)cccc1Cl,1,0.14
CCN(C(=O)c1ccc2c(=O)n3c(nc2c1)CCCCC3)c1cc(C)ccc1C,1,0.71
CCc1cccc(C)c1NC(=O)C1=CCN(S(=O)(=O)c2ccc(Br)cc2)CC1,1,0.038
CCCc1c(O)nc(SCCN(CC)CC)n(C(=O)c2ccccc2)c1=O,1,2
Cc1ccc(/C=C/c2nc(Cc3c(F)cccc3Cl)no2)cc1,2.2,1.2
COc1ccc(-c2noc(N(C)CC(=O)Nc3cccc(C)n3)n2)cc1,1,0.51
COCC(C)NC(=O)c1cc(-c2ccc(O)cc2)on1 (stereo not given),1,0.9
CCCOc1c(OC)cccc1C1CC(=O)Nc2cc(OC)cc(OC)c21 (stereo not given),1,0.049
Cc1cc(C)cc(OCc2nc(-c3ccc(OCC(N)=O)cc3)no2)c1,1.1,0.75
COc1cccc(C(=O)NCC2(c3ccccc3)CCOCC2)c1,1,0.33
O=c1[nH]cnc2nc(-c3ccccc3)c(-c3ccccc3)nc12,0.9,-1.3

Random excerpt: two compounds from above.
smiles,CBX7 AlphaScr,CBX7 AlphaScr z-score
COCC(C)NC(=O)c1cc(-c2ccc(O)cc2)on1 (stereo not given),1,0.9
Cc1cc(C)cc(OCc2nc(-c3ccc(OCC(N)=O)cc3)no2)c1,1.1,0.75

(more compounds)
smiles,CBX7 AlphaScr,CBX7 AlphaScr z-score
Clc1ccc(Cn2ncc3c(N4CCCCCC4)ncnc32)c(Cl)c1,1.2,4.5
CCOc1ccc(Nc2nc(-c3ccccc3)c(Oc3ccc(Cl)cc3)s2)cc1,0.65&0.54,-9.4&-17
O=C(CC1C(=O)N(c2ccc(F)cc2)C(=O)N1CCc1cccs1)Nc1ccc(Cl)cc1 (stereo not given),1,0.62
COc1ccccc1Nc1ncc(C(=O)N2CCN(c3ccccc3OC)CC2)c2ccccc12,1.2,8.1
Cc1cc(C)c(Nc2nnc(C(C)(C)C)c(=O)[nH]2)c(C)c1,1,-0.041
CC(C)(C)c1ccc(OCc2nc(-c3cccnc3)no2)cc1,0.89,-1.4
Cc1c(C(=O)N2CCN(c3cccc(Cl)c3)CC2)sc2ncnc(N3CCCCC3)c12,0.84,-2.3
CCCCN(CC)C(=O)c1sc2ncn(CC(=O)NCCC)c(=O)c2c1C,0.97,-0.38

3 successive records out of the list so far, quoted:
smiles,CBX7 AlphaScr,CBX7 AlphaScr z-score
CC(C)(C)c1ccc(OCc2nc(-c3cccnc3)no2)cc1,0.89,-1.4
Cc1c(C(=O)N2CCN(c3cccc(Cl)c3)CC2)sc2ncnc(N3CCCCC3)c12,0.84,-2.3
CCCCN(CC)C(=O)c1sc2ncn(CC(=O)NCCC)c(=O)c2c1C,0.97,-0.38

(cont.)
smiles,CBX7 AlphaScr,CBX7 AlphaScr z-score
O=C(N1CCN(c2ccccc2)CC1)C1(S(=O)(=O)c2ccc(Cl)cc2)CC1,0.52,-13
COc1cc2c(cc1OC)C(C(=O)Nc1ccc(F)cc1)C(c1ccccc1F)N(C)C2=O (stereo not given),0.95,-0.52
CCCCNC(=O)CN1CCN(Cc2ccccc2Cl)C1=O,1.1,1
CCCCN(CCCC)S(=O)(=O)c1ccc(C(=O)Nc2nnc(C)o2)cc1,0.0047*,-1.3*
Cc1[nH]c2ccccc2c1CCNC(=O)NC(=O)c1cccs1,0.51,-0.99
CCN1CCCC1CNC(=O)c1csc2c1CCCCC2 (stereo not given),0.95,-1.3
COc1cccc(NC(=O)c2cc(-c3ccccc3)nc3ccccc23)c1,1.2,0.81
COc1ccc(OC2C(=O)N(c3ccc(C)c(C)c3)C2c2ccccc2Cl)cc1 (stereo not given),0.98,-0.072
O=C(CCc1nc(-c2ccccc2F)no1)Nc1ccc(F)c(Cl)c1,0.95,-0.7
COc1cc(C(=O)NCc2nnc(SCC(=O)Nc3ccc(Cl)cc3)o2)cc(OC)c1OC,0.95,-0.84
CCc1ccc(NC(=O)CSc2ccc3nnc(-c4ccccc4)n3n2)cc1,1.1,0.89
CCOc1ccc(Nc2nc(-c3sc(NC(=O)CC)nc3C)cs2)cc1,0.43*,-0.64*
Cn1c(CNc2ccc(C(=O)O)cc2)nc2ccccc21,0.97,-0.14
Brc1ccc(CSc2nnc(-c3cccnc3)o2)cc1,1.1,0.62
O=C(Nc1ccccc1Br)c1csc2c1CCCCC2,1.2,9.5

A portion of the library; the hit share may differ from the screen's.
